# Screening results deposited in PubChem by several laboratories.
# Sa RN4220 lethal = kills Staphylococcus aureus RN4220 | S. aureus RN4220 growth, OD600, 16 h | inhibition, % (concentration not given with the values) | 330,000 tested, 0.33% active | AID 1259311;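 active = z-score of -3 or lower and OD600 up to 0.18 on both plates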;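 note: plate controls were untreated cells for no effect and reference antibiotic for full effect; stock transfer was 100 nL into about 80 µL; one replicate is shown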
# ugtP null kill = compounds lethal to S. aureus RN4220 ugtP deletion mutant; OD600 growth, 16 h; some inactives read as strong as hits; growth inhibition, % (no concentration beside the values); 330,000 tested, 0.54% active; AID 1259309;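 active = z-score under -3 and OD600 up to 0.15 on both plates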;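 note: plate controls were untreated wells for no effect and antibiotic for full effect; wells of about 80 µL received 100 nL stock; the first replicate is given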
# Mtb hypoxia rep = reduces hypoxia-regulated biosensor signal in M. tuberculosis | fluorescence inhibition, % (concentration not given with the values) | M. tuberculosis hypoxia-regulated fluorescent reporter, fluorescence | 300,000 tested, 0.1% active;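 active = 35 to 45% if threefold the growth effect, above 45% if 1.5-fold the growth effect; inactive = the rest, general growth blockers included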;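 note: wells of about 50 µL received 100 nL stock; 0% = vehicle wells and 100% = reference inhibitor wells; whole bacteria with a GFP reporter of the hypoxia response; strong numbers were not always called active; many hits fall short of the cut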
# Autofluor counter = flagged as autofluorescent in microsphere protease counterscreen | 360,000 tested, 3.1% active | fluorescence intensity (no concentration beside the values) | compound autofluorescence counterscreen, microsphere flow cytometry; hits give high values;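 active = at least 3 SD above the mean of all compounds, about 16000 in these data; inconclusive = too few beads counted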;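 note: 100 nL of 1 mM stock went into each well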
# PrP 5UTR inh = inhibition of PrP 5' UTR reporter expression | inhibition, % (concentration not given with the values) | 340,000 tested, 0.35% active | cell-based PrP 5' UTR mRNA reporter, plate reader;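 active = every replicate at 50% or more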;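 note: 0 = median of the neutral control wells; tested in H4 reporter cells; numbers are from one replicate; inactives centre near -14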
# BJeLR lethal = kills HRASV12-expressing BJeLR cells. BJeLR (HRASV12) viability, CellTiter-Glo ATP luminescence, 48 h; reference of the scale not given here. inhibition, % (concentration not given with the values). 300,000 tested, 0.17% active. AID 1554;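 active = replicate mean above 50%; inconclusive = above 50% but judged a plate artefact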;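 note: 50 nL library stock added to about 25 µL; numbers are from one replicate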
# Mtb hypoxia rep growth = further read-out of Mtb hypoxia rep, marked with its call; growth inhibition, %; measured here: M. tuberculosis growth (absorbance);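 0% = vehicle and 100% = reference antibiotic; read after six days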
# Numbers without * were called inactive; u = inconclusive; x = no result given.
SMILES,Sa RN4220 lethal,ugtP null kill,Mtb hypoxia rep,Mtb hypoxia rep growth,Autofluor counter,PrP 5UTR inh,BJeLR lethal
CCOC(=O)CCc1c(C)nc2cc(-c3ccccc3OC)[nH]n2c1=O,-3.0,5.2,6.1,7.5,5806,0.7,-0.3
O=C1C2CCCN2C(c2ccc(F)cc2)N1c1ccc(Cl)cc1 (stereo not drawn),2.0,5.4,x,x,5555,-16.5,13.2
Cc1cc(NC(=O)c2cccc3c2C(=O)N(C2CCCCC2)C3)ccc1Br,-3.7,-3.4,0.4,-3.6,4534,11.9,-9.0
O=C(Nc1ccc2nsnc2c1)N1CCCCC1,0.6,3.1,x,x,4670,-33.3,-2.7
O=C(CCNS(=O)(=O)c1cccc(Cl)c1)OCC(=O)N1CCN(C(=O)c2ccco2)CC1,3.7,3.2,x,x,2934,-11.6,x
CC(C)(C)[C@H]1C=C(C(=O)N2CCN(Cc3ccccc3)CC2)O[C@@H](OCc2ccc(CO)cc2)C1,x,x,x,x,2783,-1.1,22.6
CCOc1cc(NC(=S)Nc2cccc(C)c2)c(OCC)cc1NC(=O)CC(C)C,3.3,-5.7,3.3,13.7,22828*,-36.0,x
Cc1ccc2nc(NC(=O)C3=NN(c4ccccc4)C(=O)CC3)sc2c1,1.8,-3.6,4.0,10.1,2178,-18.2,0.1
Cc1[nH]n(-c2ccccc2)c(=O)c1CCOC(=O)c1cccc(C(F)(F)F)c1,1.2,-14.1,-2.2,5.3,10335,-20.4,5.5
Cn1c(=O)n(Cc2ccc(F)cc2)c(=O)c2c1nc1n2CCCN1C1CCCCC1,-6.9,-0.8,x,x,4887,-5.8,8.6
Cc1ccc(NC(=O)Cn2cc(S(=O)(=O)c3ccccc3)c(=O)c3cc(F)ccc32)cc1,-0.4,-12.2,x,x,4401,-1.5,3.5
Cc1cccc(NC(=O)c2ccc(F)c(S(=O)(=O)N3CCC4(CC3)OCCO4)c2)c1,-1.1,5.8,-10.7,-2.7,5743,-2.0,6.5
Cc1ccccc1SCC(=O)N/N=C/c1ccc(F)cc1,x,x,x,x,4109,-14.7,-5.0
CC1CN(C(=O)Cn2cc(S(=O)(=O)CC(=O)N(C)c3ccccc3)c3ccccc32)CC(C)O1 (stereo not drawn),1.0,2.8,-9.5,1.0,5694,-2.0,-1.9
COCCN=c1scc(-c2ccccc2)n1/N=C/c1c[nH]c2ccccc12,x,x,x,x,2022,-17.9,-2.7
CC[C@@H](C)[C@H](CN[C@H](CNC)C(C)C)NC[C@@H](C)c1ccc(CC(C)C)cc1,x,x,x,x,3991,8.3,2.9
CC(C)C(NC(=O)C1CCC(C(C)(C)C)CC1)C(=O)NCc1cccnc1 (stereo not drawn),-0.5,9.7,12.7,7.8,6168,-34.2,-11.3
COc1cccc(CNC(=O)COC(=O)c2c(C)nn(-c3ccccc3)c2Cl)c1,24.1,5.3,5.1,-7.2,8773,-16.1,x
Cc1ccc(N/C(=N/S(=O)(=O)c2cccs2)c2ccccc2)c(C)c1,7.2,8.8,8.0,3.2,2128,-16.2,1.4
O=C(NCCCN1CCOCC1)C(=O)NN=Cc1ccccc1,1.1,5.8,3.9,8.8,x,x,x
CC1CCN(C(c2ccccc2)c2nnnn2C(C)(C)C)CC1 (stereo not drawn),-1.3,-2.7,x,x,4902,-18.2,2.8
Cc1cccc2c(C(=O)N3CCN(c4ccccn4)CC3)cc(-c3cccc(Br)c3)nc12,-0.1,-16.3,-1.6,16.3,6267,-5.7,-1.0
O=C(CC1C(=O)NCCN1Cc1ccc(Cl)c(F)c1)NC1CCC1 (stereo not drawn),0.9,1.3,6.7,-0.4,5127,-14.9,-1.2
Cc1ccc(C2CC(c3cccc(Cl)c3)n3nc(N)nc3N2)cc1 (stereo not drawn),3.4,2.9,x,x,6408,-29.7,4.5
CC(O)C1CNC(=O)C(=O)N1CC1(c2ccccc2)CC1 (stereo not drawn),5.7,7.3,9.8,2.2,x,x,x
O=C(O)c1cccc(Cl)n1,2.7,-4.1,15.0,9.9,4655,-27.3,-11.3
COc1cc(OC)cc(-c2nc3nc(C)c(CCC(=O)NCc4ccco4)c(C)n3n2)c1,-3.7,-1.5,3.5,18.6,21023*,-32.2,-1.4
CCC(CO)Oc1cc(NCc2ccccn2)c2ncn(C(C)C)c2c1 (stereo not drawn),3.4,2.7,17.3,10.7,3588,-11.0,x
COc1ccccc1NC(CC(=O)c1ccccc1)C(=O)OCC(=O)c1ccc(C)cc1 (stereo not drawn),6.2,83.6*,15.7,1.0,2329,-163.1,-8.9
CCOC(=O)N1C2=NC(C(=O)OC)=C(C(=O)OC)[C@@H]3N(C)c4ccc(OC)cc4[C@]23C[C@H]1C(=O)OC,x,x,x,x,3682,-11.8,-1.0

# Reprinted at random: two records from the list
SMILES,Sa RN4220 lethal,ugtP null kill,Mtb hypoxia rep,Mtb hypoxia rep growth,Autofluor counter,PrP 5UTR inh,BJeLR lethal
CCC(CO)Oc1cc(NCc2ccccn2)c2ncn(C(C)C)c2c1 (stereo not drawn),3.4,2.7,17.3,10.7,3588,-11.0,x
O=C1C2CCCN2C(c2ccc(F)cc2)N1c1ccc(Cl)cc1 (stereo not drawn),2.0,5.4,x,x,5555,-16.5,13.2

# Next part:
SMILES,Sa RN4220 lethal,ugtP null kill,Mtb hypoxia rep,Mtb hypoxia rep growth,Autofluor counter,PrP 5UTR inh,BJeLR lethal
COc1cccc2cc(C(C)N(CCCN3CCOCC3)C(=S)Nc3cc(C)cc(C)c3)oc12 (stereo not drawn),0.6,8.6,4.3,-1.7,x,-20.2,5.3
Cc1[nH]c2ccc(-c3n[nH]c(=S)n3-c3ccc(Br)cc3)cc2c1C,9.2,-5.0,-7.4,13.3,3295,-13.2,-1.4
CC1C(=O)C(C)C(c2ccc3c(c2)OCO3)NC1c1ccc2c(c1)OCO2 (stereo not drawn),2.0,15.6,3.8,6.0,10970,-3.1,-6.0
CC(C)(C)OC(=O)N[C@@H](Cc1ccccc1)C(=O)NCC1CCC(C(=O)N[C@@H](CC(=O)O)C(=O)O)CC1 (stereo partly drawn),-2.8,5.4,4.9,-2.5,2897,-7.2,2.4
CCOC(=O)C1CCCN(c2nc3ccccc3nc2C(C#N)C(=O)OCC)C1 (stereo not drawn),-7.3,-1.0,2.4,0.5,2580,-28.7,4.4
O=C(NCC(=O)N1CCN(Cc2ccccc2)CC1)c1cc(Cl)cc([N+](=O)[O-])c1,-0.1,2.4,1.3,7.0,3818,7.1,x
CCOC(=O)Cn1ccc(NC(=O)c2ccc3c(c2)OCO3)n1,0.8,4.3,7.1,4.9,5033,-11.9,5.1
CN(Cc1nc(Cc2ccccc2F)no1)[C@@H]1CS(=O)(=O)C[C@H]1O,1.6,1.9,-1.7,-6.9,3510,-7.8,5.0
O=C(Cc1ccccc1)NNC1CC(=O)N(c2ccc(Oc3ccccc3)cc2)C1=O (stereo not drawn),0.6,2.8,10.6,2.6,5941,-18.5,-7.7
Cc1ccccc1CC1(CO)CCCN(C(=O)c2cc(-c3ccccc3)no2)C1 (stereo not drawn),2.4,-7.1,4.4,7.8,2155,-20.6,-5.0
CCN(CC(=O)Nc1c(F)cccc1F)C(=O)CCC(=O)c1ccc(C)cc1,0.7,-2.8,0.2,2.9,u,9.7,-5.0
Cc1cc(C(=O)N2CCc3ccccc3C2)c(C)o1,2.8,1.8,5.4,3.4,u,-21.1,x
CCOC(=O)c1oc2ccccc2c1NC(=O)c1ccc(S(=O)(=O)N(C)C)cc1,-0.1,-3.0,-11.7,-1.9,20341*,1.8,-18.5
c1ccc(-n2c(-c3ccncc3)nnc2-c2cccs2)cc1,1.7,0.0,2.1,1.8,4508,3.8,-4.0
O=C(CNC(=O)c1[nH]cnc1C(=O)NC(c1ccccc1)c1ccccc1)OCc1ccccc1,x,x,x,x,2883,-23.9,11.4

# Whole records, quoted from the list:
# `O=C(O)c1cccc(Cl)n1` across the screens: Sa RN4220 lethal: 2.7; ugtP null kill: -4.1; Mtb hypoxia rep: 15.0; Mtb hypoxia rep growth: 9.9; Autofluor counter: 4655; PrP 5UTR inh: -27.3; BJeLR lethal: -11.3
# `CCOc1cc(NC(=S)Nc2cccc(C)c2)c(OCC)cc1NC(=O)CC(C)C` across the screens: Sa RN4220 lethal: 3.3; ugtP null kill: -5.7; Mtb hypoxia rep: 3.3; Mtb hypoxia rep growth: 13.7; Autofluor counter: 22828*; PrP 5UTR inh: -36.0; BJeLR lethal: x

# (continued)
SMILES,Sa RN4220 lethal,ugtP null kill,Mtb hypoxia rep,Mtb hypoxia rep growth,Autofluor counter,PrP 5UTR inh,BJeLR lethal
COC(=O)c1ccc(NC(=S)N2CCN(Cc3ccccc3Cl)CC2)cc1,1.8,-2.3,8.1,9.8,4179,2.3,-18.0
CCCCC(=O)Nc1ccc(C(=O)NNC(=O)CCc2ccccc2)cc1,2.0,1.0,8.1,2.2,10457,-10.9,6.2
CN1CCN(C(=O)c2cnn(-c3ccccc3)c2NC(=O)c2ccc([N+](=O)[O-])cc2)CC1,1.1,2.9,8.9,6.6,3824,-20.1,0.6
NC(=O)CC(NC(=O)c1cccc(Br)c1)c1ccc(N2CCCCCC2)c([N+](=O)[O-])c1 (stereo not drawn),1.5,-11.3,6.0,0.4,3992,-34.8,-5.4
O=c1cc2c(c(-c3ccccc3)n1Cc1ccccc1)[C@H](CCO)NC2,4.6,1.3,-10.1,3.4,3648,-18.9,x
COC(=O)CSc1nc(-c2ccccc2)nc2ccc(F)cc12,7.2,-4.1,17.4,4.2,5961,-27.5,-4.3
O=C(NCc1ccco1)c1cc(S(=O)(=O)N2CCOCC2)ccc1Br,2.8,14.4,5.7,4.4,5385,-7.7,-4.2
COc1ccc(/C=C/C(=O)NC2CCS(=O)(=O)C2)cc1 (stereo not drawn),1.7,3.2,1.0,-8.9,9835,-1.1,0.7
CCCCc1cc(=O)oc2c(CN3CCCC3)c(O)c(Cl)cc12,8.4,-6.6,0.3,12.0,5051,-18.8,-3.6
COc1ccc(CCNC(=O)CSc2nnc(-c3ccc(F)cc3)c3ccccc23)cc1OC,3.5,-0.9,10.7,5.2,2228,-21.8,4.1
COc1cc(OC)cc(C(=O)NC(C)c2cnn(-c3ccccc3C)c2C)c1 (stereo not drawn),-2.4,8.0,-14.0,6.9,2364,-16.3,-7.9
CCCn1nc(C(=O)N(C)CC(=O)Nc2ccc(OCC)c(OCC)c2)c2ccccc2c1=O,2.9,6.0,2.9,-4.1,2644,4.0,x
N#CC(C(=O)c1ccccc1)=C1SCCS1,4.1,11.2,20.3,5.0,x,-11.3,-2.9
O=C(O)C(Cc1ccccc1)N1C(=O)/C(=C/c2cccnc2)SC1=S (stereo not drawn),4.9,-0.5,-6.9,-8.6,4854,-13.9,5.1
Cc1ccc(-c2nc(CS(=O)CC(=O)NCc3ccc(F)cc3)c(C)o2)cc1 (stereo not drawn),0.8,-2.8,-3.4,-0.4,5260,0.6,1.8
CCOc1ccc2nc(C)cc(Nc3ccc(N4CCOCC4)cc3)c2c1,1.0,5.2,14.8,8.2,x,x,5.1
CCOC(=O)CNC(c1ccccc1)c1cc(Br)ccc1NC(=O)OCC (stereo not drawn),-4.7,14.8,7.9,8.0,4977,-38.5,-1.4
COc1cc(C(CCN2CCCCC2)c2c(OC)cc(OC)c3c(-c4ccccc4)cc(=O)oc23)cc(OC)c1OC (stereo not drawn),0.8,1.5,4.7,9.1,3850,-11.8,1.8
O=C(CCc1ccccn1)N1CCCC(CNS(=O)(=O)c2cccs2)C1 (stereo not drawn),3.0,-3.5,2.2,5.9,4655,0.0,9.8
Cc1cc(OC(=O)c2ccccc2F)c([N+](=O)[O-])c(=O)[nH]1,1.0,-1.9,-7.8,3.8,5692,-14.6,3.1
CCN(CC)CCCN=Cc1c(O)n(Cc2ccc(F)cc2)c(=O)[nH]c1=O,6.6,2.2,-8.5,5.2,2905,-17.8,2.3
Cc1ccc(NC(=O)c2ccc(N3C(=O)C4CC=C(Cl)CC4C3=O)cc2)cc1 (stereo not drawn),5.7,-8.6,11.1,8.3,10634,-0.5,4.2
CC(C)CCN1C(=O)CCC1(C)C(=O)NC1CCCCCCC1 (stereo not drawn),1.5,0.2,11.4,2.9,23125*,-7.5,1.2
COc1ccc(N(C)C(=O)c2cc3c(s2)-c2c(C)cccc2OC3)c(OC)c1,-0.4,4.2,13.0,4.0,4059,x,-1.0
Cc1nnc(SCCc2ccccc2)[nH]c1=O,1.5,0.2,4.3,5.7,19226*,13.9,-7.6
